MT1-MMP act inh: blockers of MT1-MMP proenzyme processing, primary screen, HT1080 RFP-PRO-GFP cells, GFP/RFP fluorescence; Matrix metalloproteinase-14 (Homo sapiens), P50281; GFP/RFP ratio change, % at 20 µM; GFP/RFP ratio fluorescence, overnight; percent of plate control window, DMSO zero; 360,000 compounds, 0.061% hits; AID 651647, 2012;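 active means GFP/RFP ratio change of at least 30% with cell ATP level not reduced by more than half and red fluorescence within 50% of control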; further: strong numbers were not always called active
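Assay system: HT1080 RFP-PRO-GFP cells | Dosing: 20 µM single dose, 1% DMSO | Incubation: Cells overnight before dosing, compound overnight, 37 °C, 5% CO2 | Evaluation: GFP/RFP fluorescence ratio | Control set: DMSO-only wells and HT1080 RFP-L50D-GFP cell wells as references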
Rce1 inhib: yeast Rce1p protease inhibitors, primary screen, biochemical, fluorescence, cell-free homogeneous; CAAX prenyl protease 2 (Saccharomyces cerevisiae (strain ATCC 204508 / S288c)), Q03530; yeast membranes, quenched prenylated peptide cleavage fluorescence; calls only; 290,000 compounds, 0.27% hits; AID 2563, 2010;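 active means fall in fluorescence gain of 50% or more versus controls, with final raw signal at or below 3038400; inconclusive means same 50% fall but final raw signal above 3038400; inactive means fall in fluorescence gain under 50%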;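 further: plate controls were neutral control wells for no effect and wells lacking membranes for full effect; tested at 10 µM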
Target sequence (Q03530 whole entry, looked up): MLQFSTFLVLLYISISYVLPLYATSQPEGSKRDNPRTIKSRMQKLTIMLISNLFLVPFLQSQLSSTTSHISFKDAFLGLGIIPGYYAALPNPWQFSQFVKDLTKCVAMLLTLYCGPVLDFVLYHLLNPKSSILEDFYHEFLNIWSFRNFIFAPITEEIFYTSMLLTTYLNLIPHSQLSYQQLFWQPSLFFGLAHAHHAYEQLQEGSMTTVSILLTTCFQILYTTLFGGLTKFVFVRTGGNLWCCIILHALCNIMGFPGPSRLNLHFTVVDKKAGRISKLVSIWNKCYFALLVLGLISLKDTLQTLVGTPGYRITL
eIF4H FP inh: human eIF4H binding inhibitors, primary screen, translation initiation inhibitor project, biochemical, uHTS, fluorescence polarization; Eukaryotic translation initiation factor 4H (Homo sapiens), Q15056; eIF4H fluorescence polarization binding assay; inhibition, % at 35 µM; 290,000 compounds, 0.94% hits;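 active means 50% or more with normal probe brightness, or confirmed in later tests; inconclusive means above 50% with abnormal brightness, or retests that disagree; inactive means below 50% or failed in later tests; about a fifth of its hits are not listed in these tables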;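 further: calls also rest on retests at 20 µM and on dose response follow-up; 0% = protein and probe with vehicle and 100% = probe without protein; strong numbers were not always called active; many hits fall short of the cut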
UUG fidelity: modulators of yeast start codon fidelity, primary screen, whole organism, S. cerevisiae, single point, plate reader. AID 602363, 2012. activity score, % at 18.7 µM. S. cerevisiae UUG-firefly luciferase reporter, luminescence/redox ratio. 350,000 compounds, 0.13% hits;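 active means replicate mean at a twofold rise or more, about +100% in these data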;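 further: firefly luciferase made from a UUG start codon reports start codon fidelity; reporter light over untreated wells divided by growth signal over untreated wells; some hits fall short of that in this replicate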
CSC inhib: cancer stem cell viability inhibitors, primary screen, luminescence; cancer stem cell-like cells viability; inhibition, % at 7.5 µM; 300,000 compounds, 1.1% hits; AID 2717, 2010;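 active means mean at 75% or more and at least half the replicates too; inconclusive means mean and replicates disagree; tested in HMLE shEcad cells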;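 further: 0% = median of negative and 100% = median of positive control wells; the first replicate is given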
Env fusion inh: inhibitors of HIV-1 Env-driven cell-cell fusion, primary screen, HeLa-JRFL effector, CEM21 target cells, luciferase; inhibition, % at 12.3 µM; 360,000 compounds, 1.1% hits;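 active means mean replicate inhibition score of at least 50 and every replicate individually at or above 50; inconclusive means only one of the two criteria met; inactive means mean below 50 and not all replicates reaching 50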;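 further: 0% = plate neutral controls and 100% = maraviroc near 300 nM; one replicate is shown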
PABP polyA inh: PABP poly(A) RNA binding inhibitors, primary screen, biochemical, fluorescence polarization, uHTS. Polyadenylate-binding protein 1 (Homo sapiens), P11940. inhibition, % at 35 µM. 290,000 compounds, 1% hits. AID 2014, 2009;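 active means 50% or more with normal probe brightness, or confirmed in later tests; inconclusive means above 50% with abnormal brightness, or retests that disagree; inactive means below 50% or failed in later tests; about a fifth of its hits are not listed in these tables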;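 further: calls also rest on retests at 20 µM and on dose response follow-up; controls were probe without protein and protein plus probe with vehicle; some compounds called inactive have numbers as strong as hits; many hits fall short of the cut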
Target sequence (P11940 whole entry, looked up): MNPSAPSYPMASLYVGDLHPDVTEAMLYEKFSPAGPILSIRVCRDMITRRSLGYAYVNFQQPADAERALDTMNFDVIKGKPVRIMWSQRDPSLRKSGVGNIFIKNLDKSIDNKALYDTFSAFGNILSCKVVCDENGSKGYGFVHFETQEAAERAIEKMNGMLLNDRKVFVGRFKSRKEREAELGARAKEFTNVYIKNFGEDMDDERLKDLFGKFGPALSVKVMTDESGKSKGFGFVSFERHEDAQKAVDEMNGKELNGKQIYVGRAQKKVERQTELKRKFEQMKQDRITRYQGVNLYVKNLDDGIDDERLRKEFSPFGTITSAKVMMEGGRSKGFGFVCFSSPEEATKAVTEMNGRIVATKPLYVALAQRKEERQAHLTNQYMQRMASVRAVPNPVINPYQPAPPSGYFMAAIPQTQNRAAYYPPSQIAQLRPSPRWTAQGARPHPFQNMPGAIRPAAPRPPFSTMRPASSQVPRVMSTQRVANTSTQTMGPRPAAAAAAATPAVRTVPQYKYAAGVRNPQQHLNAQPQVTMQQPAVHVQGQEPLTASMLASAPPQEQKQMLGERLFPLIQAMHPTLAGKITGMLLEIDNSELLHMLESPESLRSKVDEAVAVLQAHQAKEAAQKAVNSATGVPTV
eIF4H FP inh retest: further read-out of eIF4H FP inh, marked with its call; inhibition, %; compound at 20 µM; confirmation average;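 mean of two retest wells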
PABP polyA inh retest: second read-out of PABP polyA inh, no call of its own (marks repeat the call); inhibition, %; compound at 20 µM; confirmation repeats;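 mean of two retest wells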
MT1-MMP act inh RFP: second read-out of MT1-MMP act inh, no call of its own (marks repeat the call); RFP signal change, %; measured here: RFP expression control read;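 0 = vehicle wells; hits needed this value within 50% of zero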
* = called active by the depositor; i = inactive; ? = inconclusive; . = no result given.

The opening two entries, ahead of the listing:
SMILES	MT1-MMP act inh	MT1-MMP act inh RFP	Rce1 inhib	eIF4H FP inh	UUG fidelity	CSC inhib	Env fusion inh	PABP polyA inh	others
O=C(c1ccco1)N1CCN(C(=O)c2cc(-c3ccccn3)nc3ccccc23)CC1	-4	-2	i	-3	-20	-13	-23	1
CCO[C@@H]1OC(C(=O)O)=C[C@H](c2ccc(Br)cc2)[C@H]1CCCO	3	4	i	11	-16	-26	-42	4

This part in full, from the start:
SMILES	MT1-MMP act inh	MT1-MMP act inh RFP	Rce1 inhib	eIF4H FP inh	UUG fidelity	CSC inhib	Env fusion inh	PABP polyA inh	others
O=C(c1ccco1)N1CCN(C(=O)c2cc(-c3ccccn3)nc3ccccc23)CC1	-4	-2	i	-3	-20	-13	-23	1
CCO[C@@H]1OC(C(=O)O)=C[C@H](c2ccc(Br)cc2)[C@H]1CCCO	3	4	i	11	-16	-26	-42	4
Cc1ccnc(NC(=O)CC(c2ccccc2)c2ccccc2)n1	-3	-2	i	-1	-13	-13	10	-13
CC(=O)N1CCN(S(=O)(=O)c2ccc(F)c(Cl)c2)CC1	1	0	i	-2	-12	-8	2	-1
Nc1ncncc1-c1ccc2ccccc2c1	-8	-6	i	-10	-12	8	19	0
COc1cccc(NC(=O)c2cc(-c3ccc(C)o3)nc3ccccc23)c1	-1	1	i	9	-24	-10	-1	4
O=c1c2c(-c3cccs3)csc2ncn1/N=C/c1ccc(OC(F)F)cc1	-2	-2	i	-7	-26	.	-53	-4
C1CCN(CCC2CCCCN2)CC1 (stereo unspecified)	4	5	.	.	-12	.	-17	.
CC(C)(C)c1ccc(CN2C(=O)c3ccccc3S2(=O)=O)cc1	0	-4	i	-9	23	-13	-7	5
O=C(CN1c2ccccc2Sc2ccccc21)NNC(=O)Nc1cccc(Cl)c1	3	-11	i	-12	-10	82*	22	11
CC(=O)N/C(=N/c1nc(C)cc(C)n1)Nc1cccc(C)c1C	-1	0	i	-4	-7	-8	-5	-1
CCOC(=O)[C@H]1[C@H]2COc3ccc(Cl)cc3[C@@H]2N2C(=O)CN(Cc3ccc(OC)cc3)C(=O)[C@@]12C	-1	-1	.	.	-3	-31	-47	.
O=C(/C=C\Nc1cccc(F)c1)c1ccc2c(c1)OCO2	0	0	i	-10	-49	4	-499	4
O=C(NCCS(=O)(=O)N1CCN(C(=O)c2ccco2)CC1)c1ccccc1	2	5	.	.	-9	.	-3	.
O=C(NCc1ccccc1)C(c1ccccc1F)N(CC1CCCO1)C(=O)c1ccccn1 (stereo unspecified)	-2	-3	i	-3	3	-16	6	-4
COc1cc(O)c(C(CCN2CCN(c3ccccc3)CC2)c2cc(OC)c(OC)c(OC)c2)c(OC)c1 (stereo unspecified)	-2	-4	i	9	10	-6	-4	4
CC(C)N1C(=O)CCC1C(=O)NC1CCCC1 (stereo unspecified)	1	4	i	-3	-17	-2	-21	-3
COc1ccc(CC(=O)NCC2CCCN(Cc3ccccc3OC)C2)cc1 (stereo unspecified)	0	3	i	-6	-6	2	-5	3
COC(=O)C1=C(C)N(CCc2ccc(OC)c(OC)c2)C(=O)C1	-4	-4	i	-11	1	4	.	-3
Cc1cc(C(=O)NC2CCCc3ccccc32)ccc1[N+](=O)[O-] (stereo unspecified)	-1	0	i	0	-18	.	1	3
Cc1c(C(=O)Nc2ccc(S(N)(=O)=O)cc2)oc2ccc(Cl)cc12	3	0	i	-1	.	-10	18	-4
CCn1nc(C)c(CN2CCN(Cc3ccc(OC)c(C)c3C)C(CCO)C2)c1C (stereo unspecified)	1	3	i	-8	-8	7	-2	-9
CCOc1ccc(Oc2ccc(Cl)cc2NC(=O)CCNC(C)=O)cc1	4	-3	i	-3	8	4	0	-11
CCC(=O)Nc1cc(SCCO)cc([N+](=O)[O-])c1	-3	0	i	-12	-24	-8	-13	5
COc1ccc(C2(C)NC(=O)N(CC(=O)Nc3ccc4c(c3)CCC4)C2=O)cc1OC (stereo unspecified)	3	0	.	.	10	-8	4	.
Cc1cc(C)cc(N(C)S(=O)(=O)c2nnc(NC(=O)C(C)C)s2)c1	1	0	i	-9	-33	-5	16	-4
N=c1c2c(n(Cc3ccc(F)cc3)c3c1CCC3)CCC2	5	-20	i	-6	.	.	.	-9
C/C(=N\NC(=O)c1ccc(Cl)cc1)c1cccc(NC(=O)C(C)C)c1	-2	0	.	3	-13	.	-27	4
c1ccc2nc(N3CCOCC3)cnc2c1	2	0	i	-13	-13	-16	.	-2
Cc1ccc(C(=O)N2CCC(Cc3ccccc3)CC2)cc1S(=O)(=O)N1CCOCC1	-5	-8	.	.	5	.	-21	.
COc1cccc(Cn2cccc(NC(=O)Nc3cccc(C#N)c3)c2=O)c1	.	.	i	-5	.	15	27	14
CC1CCN(S(=O)(=O)c2ccc3c(c2)oc(=O)n3CC(=O)N2CCc3ccccc3C2)CC1	1	-2	i	1	1	-12	-21	11
COc1ccccc1N1C(=O)C2C3C=CC(C3)C2(C)C1=O (stereo unspecified)	2	4	i	-10	-6	.	.	-1
CCOc1ccc(C(=O)NC2CCN(C(=O)Nc3ccccc3OC)CC2)cc1	-5	-1	i	4	6	-15	2	10
CCCc1cc(N2CCCC(C(=O)Nc3cc(Cl)ccc3OC)C2)n2ncnc2n1 (stereo unspecified)	10	-5	.	.	.	-22	15	.
O=C(N/N=C\c1ccc(Oc2ccccc2)cc1)c1csnn1	1	1	i	14	.	5	5	?
Cc1ccc2occ(C(=O)c3ccco3)c(=O)c2c1	2	2	i	5	3	-11	.	-7
CCOC(=O)c1oc2cccc(OCC(O)CNC(C)C)c2c1C (stereo unspecified)	1	3	i	10	-10	-9	-60	1
Cc1cccc(-n2cc(-c3ccccc3)c3c(N4CCOCC4)ncnc32)c1	-32	-15	i	-1	-8	105*	?	6
COc1cccc(C(=O)OC(C)C(=O)Nc2ccc3c(c2)OCO3)c1 (stereo unspecified)	2	-11	.	.	7	7	-10	.
Cc1ccc(C(=O)NCC(c2ccc(F)cc2)N2CCOCC2)cc1 (stereo unspecified)	4	8	i	-5	.	30	2	10
O=C(NC(=S)N1CCN(c2ccc(O)cc2)CC1)c1cccs1	8	-5	i	0	-6	35	24	-7
CC(=O)Nc1ccc(NC(=O)C(C)OC(=O)CC23CC4CC(CC(Br)(C4)C2)C3)cc1 (stereo unspecified)	-2	-1	.	.	-19	-16	18	.
O=C(NCCN1CCOCC1)C(=O)NCC1OCCN1S(=O)(=O)c1ccc(Cl)cc1 (stereo unspecified)	-2	4	.	.	-1	.	-32	.
COc1cc(OC)cc(C(=O)NCC(=O)OCC(=O)Nc2ccc3c(c2)OCO3)c1	-2	-1	i	6	.	-7	-14	-3
O=C(Nc1ccncc1)c1ccc(S(=O)(=O)Nc2ccccc2)cc1	-12	-23	i	9	.	40	16	-5
O=C(CN1CCCCC1)Nc1nnc(-c2ccccc2)s1	3	-5	i	-12	-16	-1	.	-8
CCn1nc(NC(=O)C2CCCO2)c2cc3cc(C)ccc3nc21 (stereo unspecified)	7	4	i	-8	.	-2	-39	-13
Fc1ccccc1/C=N/n1cc(-c2ccccc2)[nH]c1=S	5	3	i	-4	-19	8	-26	-6
CCOC(=O)/C=c1\s/c(=C\c2ccc(C#N)cc2)c(=O)n1CC(=O)Nc1cccc(C)c1C	-2	-3	i	-7	-19	12	.	-8
O=C(O)c1cn(C2CC2)c2cc(N3CCN(S(=O)(=O)c4ccc5c(c4)OCCO5)CC3)c(F)cc2c1=O	-8	-25	i	46	-11	-1	22	2
CCOC(=O)c1nnc(-c2ccccc2)nc1NC	0	0	i	-9	-2	-5	-25	1
CC(C)C1N(C(=O)CN2CCCC2)CCN1S(=O)(=O)c1ccccc1 (stereo unspecified)	-6	-3	i	-3	-1	-1	.	-6
CSC1=NC2(CCCCC2)CC12C=CC(=O)C=C2	1	6	i	5	.	.	-2	8
O=C(NC(=S)Nc1cccc2c(O)cccc12)c1ccco1	-4	4	i	66*	-20	16	-21	55*
C=CCN(C(=O)c1csnn1)C(C(=O)NCc1ccc(F)cc1)c1sccc1C (stereo unspecified)	0	-1	i	-8	-1	-11	25	7
Cn1c(N)c(C(=O)COC(=O)C2CCCC2)c(=O)n(C)c1=O	0	3	i	2	.	-10	-5	-3
O=C1NC[C@H](Cc2ccccc2)N(C[C@H]2CCCN2C[C@H](Cc2ccccc2)N2C[C@H](Cc3ccccc3)N(CC3CCCCC3)C(=O)C2=O)C1=O	-5	-15	.	.	8	.	-17	.
COc1ccc(CCNC(=O)CCS(=O)(=O)c2ccc3c(c2)CCN3C(C)=O)cc1OC	-3	2	i	6	-10	-4	-16	6
O=C(Nc1nc(-c2ccccn2)cs1)c1ccc(S(=O)(=O)N2CCCCC2)cc1	.	.	i	3	.	99*	.	-10
Later entries:
SMILES	MT1-MMP act inh	MT1-MMP act inh RFP	Rce1 inhib	eIF4H FP inh	UUG fidelity	CSC inhib	Env fusion inh	PABP polyA inh	others
CC(=O)Nc1ccc(NC(=O)CSc2nnc(NC(=O)C3CC(=O)N(c4ccc(F)cc4)C3)s2)cc1 (stereo unspecified)	-1	2	i	-4	-22	-4	.	3
O=C(NCCN1CCOCC1)c1csc2c1CCCCC2	1	5	.	0	-20	-16	.	-11
C(=C/c1nccc2c1[nH]c1ccccc12)/c1ccc2c(c1)OCO2	-40	-7	i	14	-10	.	-15	-3
O=S(=O)(c1ccccc1)N1CCc2ccccc21	1	0	i	.	.	1	-4	.
O=C(COC(=O)CCc1nc2ccccc2n1-c1ccccc1)Nc1cccc(Cl)c1	-8	-2	i	-9	-3	-18	.	-2
COc1ccc(CCC(=O)Nc2nc3c(s2)CN(C)CC3)cc1OC	-2	0	i	-6	0	-8	3	4
Cc1cccc(N(C(=O)c2csnn2)C(C(=O)NC(C)(C)C)c2ccncc2)c1 (stereo unspecified)	2	2	i	-4	-20	2	.	-1
CCOC(=O)c1nnn(-c2nonc2N)c1COc1ccccc1	-3	-8	i	31	.	.	.	112*	eIF4H FP inh retest=46;PABP polyA inh retest=106*
O=S(=O)(NCC(c1ccc2c(c1)OCO2)N1CCOCC1)c1ccccc1 (stereo unspecified)	0	-2	i	.	-21	-7	-5	.
O=c1[nH]c2ccc(Cl)cc2c(O)c1Cc1ccccc1	0	3	i	11	.	-1	8	7
COc1cc(CC(=O)NCc2ccc3c(c2)OCO3)cc(OC)c1OC	1	0	i	-3	-8	-21	-5	4
CCNS(=O)(=O)c1ccc(-c2ccc(-n3cnnn3)cc2)cc1	2	3	i	2	-13	-15	1	9
CC(C)CCN1C(Nc2ccccc2)=NC[C@@H]1Cc1ccccc1	6	4	i	-2	-8	4	1	13
CCOC(=O)C1CCN(C(=O)COc2cccc3ccccc23)CC1	1	4	i	1	-6	.	4	6
Cc1ccc(NC2CCCN(C(=O)CCn3nccc3C)C2)cc1C (stereo unspecified)	0	1	.	6	-11	-3	16	-6
COc1cc(/C=C(\C#N)C(=O)NC2CCCCC2C)ccc1OS(=O)(=O)c1ccc(C)cc1 (stereo unspecified)	-10	-19	i	-5	-14	157*	-1	-4
